Rango complex inh: inhibitors of Rango-importin beta complex formation. Rango CFP/YFP FRET sensor + importin beta, 45 min. Potency, µM (series often up to 92.2 µM), for inactives: at the top dose inhibition of complex formation. hit rate 0.031% among 340,000. AID 540263; active = rising FRET ratio curve, often small or poorly fitted; inconclusive = mostly compound fluorescence or quenching in the first reads; inactive = flat curves in all reads;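 note: potency is the fitted concentration of half-maximal effect; 0% = DMSO wells and 100% = buffer wells lacking importin beta; nearly all actives have a fitted effect of over 15% in size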
Target sequence (Q14974 whole entry, looked up): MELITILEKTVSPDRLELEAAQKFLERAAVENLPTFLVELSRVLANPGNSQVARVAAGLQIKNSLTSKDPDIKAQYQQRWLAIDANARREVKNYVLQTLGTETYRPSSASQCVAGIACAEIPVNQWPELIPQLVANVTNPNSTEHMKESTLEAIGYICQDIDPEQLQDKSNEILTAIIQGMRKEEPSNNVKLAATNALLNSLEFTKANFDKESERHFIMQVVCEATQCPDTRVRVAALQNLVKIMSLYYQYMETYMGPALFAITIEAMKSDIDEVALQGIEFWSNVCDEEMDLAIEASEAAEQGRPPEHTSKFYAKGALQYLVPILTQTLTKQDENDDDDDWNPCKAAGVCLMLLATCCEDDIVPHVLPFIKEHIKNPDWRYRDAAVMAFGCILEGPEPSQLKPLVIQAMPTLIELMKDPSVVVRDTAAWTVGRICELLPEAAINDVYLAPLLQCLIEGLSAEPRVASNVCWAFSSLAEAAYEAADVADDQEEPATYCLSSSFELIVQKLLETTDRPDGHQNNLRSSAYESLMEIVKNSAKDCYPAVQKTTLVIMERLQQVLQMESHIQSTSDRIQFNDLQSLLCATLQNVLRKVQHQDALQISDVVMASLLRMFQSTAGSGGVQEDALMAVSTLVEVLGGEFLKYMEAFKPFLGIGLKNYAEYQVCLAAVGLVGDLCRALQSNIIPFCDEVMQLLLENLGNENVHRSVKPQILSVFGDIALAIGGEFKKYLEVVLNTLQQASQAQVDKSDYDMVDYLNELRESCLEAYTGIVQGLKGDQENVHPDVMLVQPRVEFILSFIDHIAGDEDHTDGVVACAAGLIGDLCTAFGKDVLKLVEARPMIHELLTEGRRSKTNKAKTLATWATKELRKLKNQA
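FRET biosensor (snurportin 1 IBB flanked by EYFP and cerulean), 50 nM, with compound 5 min, then 0.125 microM importin beta in PBS, 1 mM DTT, 0.02% Tween-20, 0.1% BSA. CFP/YFP ratio read after 45 min at room temperature; pre-read flags interference.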
Rango release inh: inhibition of RanGTP-driven Rango-importin beta dissociation; Potency, µM (series often up to 46.1 µM), without a hit: at the highest dose activity change, negative = inhibition; AID 540253; O95149+P62826; Biochemical FRET Rango-importin beta, RanGTP-induced dissociation; hit rate 0.071% among 340,000; active means falling FRET ratio curve, often poorly fitted, with flat reads before Ran was added; inconclusive means other falling curves, or compound fluorescence or quenching; inactive means flat or rising ratio curve;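 note: potency is the fitted concentration of half-maximal effect; % of control where 0% means no effect; nearly all actives have a fitted effect of over 45% in size; -100% = wells without RanGTP and RCC1; the record marks most hits as doubtful in a second field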
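Quantitative HTS using a FRET biosensor: 0.1 uM Rango, 0.25 uM importin beta, 0.6 uM Ran, 2 mM GTP, 0.2 uM RCC1 final, PBS with DTT, Tween-20 and BSA. Post-read taken 45 min after Ran addition.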
GLA inh pH 4.5: blocks human alpha-galactosidase A at pH 4.5 | purified enzyme, 4-MU-alpha-Gal fluorescence, pH 4.5 | activity change, negative = inhibition, % at 105 µM | AID 1467 | P06280 | 230,000 tested, under 10 active; inconclusive = small, poorly fitted or top-dose-only inhibition, or a rising curve; inactive = flat fitted curve, though single readings scatter; no compound was filed as active;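 note: 0% = full activity with enzyme and -100% = basal without enzyme; dose as in the result columns while the protocol names 77 µM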
miR-21 reporter: miR-21 reporter, rising signal | HeLa miR-21 FLuc reporter, luciferase, 48 h | Potency, µM (titrated, usually from 38.3 µM), for inactives: at the top dose reporter change, positive = more light | 340,000 tested, under 10 active | AID 2288; active = well fitted rising curve with a large enough effect; inconclusive = small, poorly fitted or top-dose-only effect; inactive = no such curve, though single readings can be large or run the other way;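 note: % of control where 0% means no effect; miR-21 action dims this reporter so a rising signal means less miR-21 action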
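HeLa miR-21-FLuc reporter line, endogenous miR-21; 2000 cells/well in DMEM/10% FBS; compound titration up to ~40uM final, 48 h, 37 degree Celsius; luciferase detection reagent, 15 min lysis, CCD luminescence.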
The depositor's hits bear a star; ? = inconclusive; . = not tested or not shown; & = joins results of further samples. Not all compounds are listed; count on the stated rates, not on these rows.

Fields: Rango complex inh	Rango release inh	GLA inh pH 4.5	miR-21 reporter
CCOc1cc(/C=N/NC(=O)C2CCCC2)ccc1O
→ -2.6%	-3%	.	-1%
CC(OC(=O)CC1CCCCC1)C(=O)Nc1cccc(C#N)c1 (stereo not drawn)
→ -1.0%	1%	.	.
CCCCOc1ccc(C(=O)Nc2ccncc2)cc1
→ -1.1%	-10%	-3	-2%
O=C(NCCCN1CCCC1=O)c1cc(COc2ccc(F)cc2F)on1
→ 2.0%	?	.	-8%
CCc1nnc(NC(=O)[C@@H]2CCCN2S(=O)(=O)c2ccc3c(c2)OCCO3)s1
→ -0.3%	-8%	3	0%
CC1=NN(c2ccccc2)C(=O)/C1=C\c1cn(-c2ccccc2)nc1C
→ -3.4%	15%	-8	-2%
Cc1ccccc1CSCCNC(=S)Nc1ccccc1
→ 2.3%	?	8	1%
CCN(CC)CCCNc1nnc(C)c(=O)[nH]1
→ -2.9%	11%	2	-4%
CNC(=O)C(=O)Nc1cc2c3c(c1)CCC(=O)N3CCC2
→ -7.0%	4%	.	2%
CCN1CCN(S(=O)(=O)c2ccc(Cl)c(C(=O)NC(C)c3ccccc3Cl)c2)CC1 (stereo not drawn)
→ -2.6%	9%	.	.

The list goes on.
Fields: Rango complex inh	Rango release inh	GLA inh pH 4.5	miR-21 reporter
COc1ccc(C(CNC(=O)C2CCN(S(=O)(=O)c3ccc(F)cc3)CC2)N(C)C)cc1 (stereo not drawn)
→ 0.1%	-3%	.	-7%
CN(C)CCNC(=O)c1cc2c(s1)-c1ccc(Cl)cc1SC2
→ ?	-1%	.	?
CC(C)Oc1cccc(C(=O)C2CCCN(Cc3ccc4nonc4c3)C2)c1 (stereo not drawn)
→ 0.0%	0%	-7	-3%
O=C1C2C(c3cccc(/C=C/c4ccccc4)c3)CC=CC2C(c2ccc3ccccc3c2)N1Cc1ccccc1 (stereo not drawn)
→ 2.0%	6%	0	1%
Fc1ccc(NCc2nnc(SCc3nnc(-c4ccccc4)o3)n2CC2CCCO2)cc1 (stereo not drawn)
→ -4.6%	-12%	-1	-3%
CCN(CC(=O)Nc1c(F)cccc1F)C(=O)CSc1nc2ccccc2o1
→ 0.6%	6%	.	.
Cc1cccc(NS(=O)(=O)c2ccc(C(=O)N3CCN(c4ccccc4O)CC3)cc2)c1C
→ 3.4%	19%	.	24%
Cn1nc(C(F)(F)F)c(-c2ccc(F)cc2)c1NC(=O)Nc1ccc(F)cc1
→ 2.3%	-2%	-20	?
O=c1c2ccc([N+](=O)[O-])c3cccc(c32)c2nc3ccccc3n12
→ .	.	0	-5%
CN(C)c1ccc(C(=O)OCC(=O)NCCNC(=O)COC(=O)c2ccc(N(C)C)cc2)cc1
→ -0.6%	-9%	.	-47%

Three of the entries above in order of the Rango release inh value, smallest number first:
Fields: Rango complex inh	Rango release inh	GLA inh pH 4.5	miR-21 reporter
CN(C)c1ccc(C(=O)OCC(=O)NCCNC(=O)COC(=O)c2ccc(N(C)C)cc2)cc1
→ -0.6%	-9%	.	-47%
COc1ccc(C(CNC(=O)C2CCN(S(=O)(=O)c3ccc(F)cc3)CC2)N(C)C)cc1 (stereo not drawn)
→ 0.1%	-3%	.	-7%
CCN(CC(=O)Nc1c(F)cccc1F)C(=O)CSc1nc2ccccc2o1
→ 0.6%	6%	.	.

The list continues.
Fields: Rango complex inh	Rango release inh	GLA inh pH 4.5	miR-21 reporter
O=C(Nc1ccc(Cl)cc1)Nc1nnc(-c2ccncc2)s1
→ -2.5%	-8%	1	-8%
CSc1ncc(Cl)c(C(=O)Nc2ccccc2Cl)n1
→ -1.4%	-2%	3	1%
CC(C)c1ccccc1NC(=O)c1ccco1
→ 0.1%	-2%	0	-11%
Cc1cc(C)n(-c2ccc(C(=O)Nc3ccc(C)c(S(=O)(=O)N(C)C)c3)cc2)n1
→ 4.0%	-9%	2	24%
CCCn1c(/N=C/c2cc(OC)ccc2O)nc2ccccc21
→ -2.4%	-17%	2	0%
COc1ccc(NC(=O)CN2CCN(C(=O)c3ccco3)CC2)c(OC)c1
→ 0.0%	6%	5	-2%
CC(C)c1nc(SCC(=O)Nc2cccc(C(F)(F)F)c2)c2c(=O)n(C)c(=O)n(C)c2n1
→ -1.3%	-12%	1	-3%
COC(=O)[C@@H](Cc1c[nH]c2ccccc12)NC(=O)CCC(=O)c1ccc(F)cc1
→ ?	-14%	.	3%
O=C(NCCCNC(=O)c1cncc(O)c1)c1cncc(O)c1
→ 11%	7%	-3	-2%
Cc1ccc(C(=O)OCC(=O)Nc2ccc3c(c2)OCO3)o1
→ 3.1%	-5%	-3	-27%

Continued:
Fields: Rango complex inh	Rango release inh	GLA inh pH 4.5	miR-21 reporter
C/C(=N\NC(=O)CC#N)c1cc2ccccc2oc1=O
→ 3.1%	-5%	1	-10%
O=C(C1CCC(CNS(=O)(=O)c2cccc3nsnc23)CC1)N1CC=C(c2ccccc2)CC1 (stereo not drawn)
→ -0.4%	-3%	-9	21%
OCCCN1c2ccccc2Nc2nnc(-c3ccccc3)cc21
→ 1.6%	-15%	3	-15%
Cc1ccsc1C1CC(=O)Nc2ccccc2S1 (stereo not drawn)
→ -0.1%	-6%	5	-14%
O=C(COc1cc(Cl)c(Cl)cc1Cl)Nc1ccncc1
→ -3.4%	2%	-7	-5%
COc1ccc(OC)c(/C(C)=N/Nc2ccc(C(=O)O)cc2)c1
→ -2.0%	3%	9	-27%
CCC(C)(C)n1nnnc1CN1CCC(c2nc3ccc(C)cc3[nH]2)CC1
→ 0.9%	12%	2	19%
COc1ccc(CN(C)C[C@H]2Oc3c(NC(=O)Nc4ccccc4)cccc3C(=O)N([C@H](C)CO)C[C@@H]2C)cc1
→ -4.3%	1%	.	.
Cn1nc(C(=O)N2CCN(c3ccc(Cl)cc3)CC2)c2c1-c1ccccc1S(=O)(=O)C2
→ 0.3%	-12%	.	10%&-2%
Cc1cccc(C(=O)NNC(=O)CN2C(=O)c3ccccc3C2=O)c1
→ -0.6%	8%	3	-4%

Further results.
Fields: Rango complex inh	Rango release inh	GLA inh pH 4.5	miR-21 reporter
CCOC(=O)c1c(C)n(CC(O)c2ccccc2)c2ccc(O)cc12 (stereo not drawn)
→ 1.6%	8%	-9	3%
CCn1ncc(C2=NOC(C(=O)N3CCC(C(N)=O)CC3)C2)c1C (stereo not drawn)
→ -1.4%	7%	-11	1%
CCOC(=O)Cc1cc(=O)[nH]c(Nc2nc3ccccc3o2)n1
→ ?	2%	1	-11%
CC1(C)CC(=O)C2=C(C1)NC1=C(C(=O)c3ccccc31)C2c1ccc(O)cc1 (stereo not drawn)
→ -3.2%	6%	1	-9%
COc1ccccc1CCN1C(=S)NC(C)(C)CC1(C)O (stereo not drawn)
→ 2.2%	12%	-3	7%
Cc1cc(Cl)ccc1OCC(=O)NNC(=O)c1cccnc1
→ 0.8%	15%	.	-12%
O=C1NC(C(=O)O)=CC(c2ccc([N+](=O)[O-])cc2)N1 (stereo not drawn)
→ 0.4%	-13%	-4	0%
COc1cc(OC)c(C2Oc3nc(SC)nnc3-c3ccccc3N2C(C)=O)cc1OC (stereo not drawn)
→ 0.6%	-12%	0	2%
CCn1nc(C(=O)N2CCc3ccccc3C2)c2ccccc2c1=O
→ 2.0%	0%	-8	-9%
Cc1ccccc1N(CC(=O)NC1CCCCC1)C(=O)c1csnn1
→ 0.0%	-10%	.	12%

(further entries)
Fields: Rango complex inh	Rango release inh	GLA inh pH 4.5	miR-21 reporter
O=C(Nc1ccc(Cl)cc1)NC1CCCCC1Cc1ccco1 (stereo not drawn)
→ 0.0%	22%	-8	20%
N/C(=N\c1nc(C(F)(F)F)cc(=O)[nH]1)Nc1ccc(Cl)cc1
→ .	.	4	-7%
COc1ccc(-c2nc(CS(=O)CC(=O)NCCCN3CCCC(C)C3)c(C)o2)cc1OC (stereo not drawn)
→ -2.3%	-2%	.	-3%
COc1cc2nc(SCC(=O)NCCc3ccccc3)n(Cc3ccco3)c(=O)c2cc1OC
→ 0.7%	4%	-7	2%
O=C(Cc1ccccc1F)NC1CCCN(Cc2ccc(Cl)cc2)C1 (stereo not drawn)
→ -4.5%	-18%	.	7%
CN1C(=O)c2ccc(C(=O)NCc3ccc4c(c3)OCO4)cc2C1=O
→ 0.2%	-3%	8	-2%
CN(c1ccc(C(=O)N2CCN(c3ccccc3F)CC2)cc1)S(=O)(=O)c1ccccc1
→ -3.9%	10%	.	1%
CCN1CCN(c2ccc(S(=O)(=O)N3CCCCC3)cc2NC(=O)c2cccc(C)c2)CC1
→ -0.2%	4%	.	.
CCOC(=O)N1CCN(C(=O)C(=O)NN)CC1
→ 3.3%	1%	-15	3%
CC(=O)Nc1ccc(S(=O)(=O)Nc2ccc3c(c2)C(=O)OC3)cc1
→ .	.	-20	0%

(next part)
Fields: Rango complex inh	Rango release inh	GLA inh pH 4.5	miR-21 reporter
Cc1cc(C)nc(N(C#N)CCOc2ccc(Cl)cc2)n1
→ 3.0%	11%	2	-24%
Cc1ccccc1NS(=O)(=O)c1ccc(C(=O)N2CCN(S(=O)(=O)c3ccccc3)CC2)cc1
→ -3.1%	9%	.	.
Cc1c(C(=O)NCCCN2CCOCC2)oc2c1C1(CCC2)SCCS1
→ 0.7%	13%	7	-35%
O=C(CSc1nc2[nH]ncc2c(=O)[nH]1)Nc1ccccc1C(F)(F)F
→ 7.0%	-5%	.	.
CC(C)[C@H](NC(=O)[C@H](Cc1ccccc1)n1c(=O)[nH]c2ccccc2c1=O)C(=O)N1CCC[C@@H]1C(=O)O
→ -0.4%	-3%	.	2%
CSc1ccc(S(=O)(=O)Nc2c(C)cccc2C)cc1
→ -4.2%	-2%	-11	-2%
Cc1cccc(NC(=S)Nc2ccc(Cl)c(Cl)c2)c1
→ 8.6%	17%	-31	-1%
CC1CCCN(Cc2c(C(=O)N3CCc4ccccc4C3)nc3ccc(Cl)cn23)C1 (stereo not drawn)
→ ?	14%	.	0%
CCCCc1nnc(NC(=O)CN2C(=O)c3ccccc3C2=O)s1
→ -4.5%	-3%	6	-2%
Cc1cc(=O)[nH]c(Cc2ccc(OC(C)C)cc2)n1
→ -0.5%	-4%	-5	5%

2 neighbouring records already listed:
Fields: Rango complex inh	Rango release inh	GLA inh pH 4.5	miR-21 reporter
Cc1cc(C)nc(N(C#N)CCOc2ccc(Cl)cc2)n1
→ 3.0%	11%	2	-24%
Cc1ccccc1NS(=O)(=O)c1ccc(C(=O)N2CCN(S(=O)(=O)c3ccccc3)CC2)cc1
→ -3.1%	9%	.	.

The list goes on:
Fields: Rango complex inh	Rango release inh	GLA inh pH 4.5	miR-21 reporter
O=C(Cn1ccn(-c2ccc(F)c(F)c2)c(=O)c1=O)NCCc1ccccc1
→ -1.6%	-2%	.	0%&1%
O=C(CNC(=O)c1ccccc1F)NC1=NCCS1
→ 2.9%	13%	.	-1%
Cc1cc(C)c(S(=O)(=O)c2ccccc2C)c(OCCO)n1
→ -2.9%	-22%	7	3%
Cc1onc(-c2c(Cl)cccc2Cl)c1C(=O)N1CCN(c2ccccc2F)CC1
→ 0.6%	-16%	.	8%
CCn1c2ccc(F)cc2c2nc3ccccc3nc21
→ ?	?	-7	-1%
Cc1cccc(NC(=O)C2CCN(C(=O)[C@@H]3Cc4ccccc4CN3)CC2)c1
→ ?	-13%	.	-27%
O=C(N/N=C/c1ccco1)Nc1ccccc1
→ -0.5%	-22%	-7	-53%
COc1ccc(OC)c(/C=N/N(C)c2ccccc2)c1
→ 2.8%	-13%	4	-85%
CN(C)/C=C(\C#N)C(=O)Nc1ccccc1
→ -1.1%	2%	6	-34%
O=C(O)C=C(Br)Br
→ -0.1%	9%	.	0%
COc1cc(C(=O)NCC(c2cccs2)N2CCOCC2)cc(OC)c1OC (stereo not drawn)
→ -0.7%	49%	.	.
CCOC(=O)N1CCN(C(=O)Cc2ccc(-n3c(=S)[nH]c4ccccc4c3=O)cc2)CC1
→ 7.4%	-9%	-4	-1%
CCC(NC(=O)C1C2C=CC(C2)C1C(=O)O)c1ccc(C)cc1 (stereo not drawn)
→ 5.0%	-12%	.	2%

Screening data deposited in PubChem BioAssay by National Center for Advancing Translational Sciences (NCATS).
